eIF4H inh: inhibitors of RNA binding by human eIF4H; Q15056; eIF4H fluorescence polarization binding assay; inhibition, % at 35 µM; hit rate 0.94% among 290,000; AID 2012;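 active = 50% or more with normal probe brightness, or confirmed in later tests; inconclusive = above 50% with abnormal brightness, or retests that disagree; inactive = below 50% or failed in later tests; about a fifth of its hits are not listed in these tables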;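 note: calls also rest on retests at 20 µM and on dose response follow-up; 0% = protein and probe with vehicle and 100% = probe without protein; strong numbers were not always called active; many hits fall short of the cut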
CSC inhib: blocks cancer stem cells | cancer stem cell-like cells viability, luminescence | inhibition, % at 7.5 µM | hit rate 1.1% among 300,000 | AID 2717;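 active = mean at 75% or more and at least half the replicates too; inconclusive = mean and replicates disagree; tested in HMLE shEcad cells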;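 note: 0% = median of negative and 100% = median of positive control wells; the first replicate is given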
PABP FP inh: blocks human PABP binding to poly(A) RNA | fluorescence polarization | inhibition, % at 35 µM | P11940 | hit rate 1% among 290,000 | AID 2014;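 active = 50% or more with normal probe brightness, or confirmed in later tests; inconclusive = above 50% with abnormal brightness, or retests that disagree; inactive = below 50% or failed in later tests; about a fifth of its hits are not listed in these tables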;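 note: calls also rest on retests at 20 µM and on dose response follow-up; controls were probe without protein and protein plus probe with vehicle; some compounds called inactive have numbers as strong as hits; many hits fall short of the cut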
Rce1 inh: blocks yeast Ras-converting enzyme | Q03530 | yeast membranes, quenched prenylated peptide cleavage fluorescence | calls only | hit rate 0.27% among 290,000 | AID 2563;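 active = fall in fluorescence gain of 50% or more versus controls, with final raw signal at or below 3038400; inconclusive = same 50% fall but final raw signal above 3038400; inactive = fall in fluorescence gain under 50%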;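 note: plate controls were neutral control wells for no effect and wells lacking membranes for full effect; tested at 10 µM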
Target sequence (Q03530 whole entry, looked up): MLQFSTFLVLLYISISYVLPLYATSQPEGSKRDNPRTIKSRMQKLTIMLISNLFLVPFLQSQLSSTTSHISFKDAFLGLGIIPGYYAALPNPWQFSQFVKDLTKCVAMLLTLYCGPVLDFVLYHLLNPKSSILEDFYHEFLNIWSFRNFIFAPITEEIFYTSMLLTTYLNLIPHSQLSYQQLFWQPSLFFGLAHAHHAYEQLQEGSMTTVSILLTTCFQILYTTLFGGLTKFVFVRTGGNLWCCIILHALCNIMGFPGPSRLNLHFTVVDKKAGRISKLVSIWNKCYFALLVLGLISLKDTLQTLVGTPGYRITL
Env fusion inh: blocks HIV Env-driven cell-cell fusion; HeLa-JRFL Env/CEM21 cell fusion, luciferase; inhibition, % at 12.3 µM; hit rate 1.1% among 360,000;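 active = mean replicate inhibition score of at least 50 and every replicate individually at or above 50; inconclusive = only one of the two criteria met; inactive = mean below 50 and not all replicates reaching 50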;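 note: 0% = plate neutral controls and 100% = maraviroc near 300 nM; one replicate is shown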
UUG fidelity: alters start codon recognition fidelity in yeast | S. cerevisiae UUG-firefly luciferase reporter, luminescence/redox ratio | activity score, % at 18.7 µM | hit rate 0.13% among 350,000 | AID 602363;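 active = replicate mean at a twofold rise or more, about +100% in these data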;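 note: firefly luciferase made from a UUG start codon reports start codon fidelity; reporter light over untreated wells divided by growth signal over untreated wells; some hits fall short of that in this replicate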
MT1-MMP act inh: MT1-MMP (human) activation inhibition; P50281; HT1080 RFP-PRO-GFP cells, GFP/RFP ratio fluorescence, overnight; percent of plate control window, DMSO zero; GFP/RFP ratio change, % at 20 µM; hit rate 0.061% among 360,000; AID 651647;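 active = GFP/RFP ratio change of at least 30% with cell ATP level not reduced by more than half and red fluorescence within 50% of control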; note: strong numbers were not always called active
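Test system: HT1080 RFP-PRO-GFP cells; Benchmarks: DMSO and RFP-L50D-GFP cell wells; Timing: cells overnight before dosing, compound overnight, 37 °C, 5% CO2; Compound: one 20 µM compound dose with 1% DMSO; Read-out: GFP/RFP fluorescence ratio.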
MT1-MMP act inh RFP: also measured in MT1-MMP act inh; calls as there; RFP signal change, %; measured here: RFP expression control read;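 0 = vehicle wells; hits needed this value within 50% of zero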
Numbers without * were called inactive; i = inactive; ? = inconclusive; / = not tested or not shown. Some of the compounds tested, so the mix of outcomes need not match the whole.

Structure,eIF4H inh,CSC inhib,PABP FP inh,Rce1 inh,Env fusion inh,UUG fidelity,MT1-MMP act inh,MT1-MMP act inh RFP
CC1=NN(C(=O)Cc2ccc([N+](=O)[O-])cc2)C(O)(c2cccnc2)C1 (stereo not drawn),-12.8,1.2,2.7,i,-35.7,-15.7,7.5,2.5
N#Cc1ccccc1S(=O)(=O)N1CCN(CC(=O)NC(=O)NC2CCCCC2)CC1,/,26.7,/,i,4.3,/,-0.3,-2.2
Cc1nn(C(C)(C)C)c(OC(=O)c2cccs2)c1Sc1ccccc1,-11.8,1.0,-2.8,i,-45.7,-5.2,-2.8,4.6
C=CC[C@@H](CC(=O)N[C@@H](CO)Cc1ccccc1)C(=O)NC[C@H](OC(=O)[C@@H](CC=C)Cc1ccc(F)cc1)c1ccccc1,/,/,/,/,14.9,0.0,-1.8,-2.9
CC(C)C[C@H](NC(=O)Nc1cccc(Br)c1)C(=O)O,7.6,3.2,-9.1,i,-1.5,-19.6,2.1,0.1
Cc1ccnc(NC(=O)c2cc3ccccc3o2)c1,/,16.1,/,i,38.0,-75.5,4.1,2.3
CC(=O)c1ccc(N2CCN(C(=O)c3cccs3)CC2)c(F)c1,4.6,-13.5,0.1,i,2.0,6.3,4.0,0.2
Cc1cccc(N2CCN(C(=O)CCCn3c(=S)[nH]c4cc5c(cc4c3=O)OCO5)CC2)c1C,-1.1,/,-12.3,i,?,-22.3,1.5,-18.5
O=C(O)C1CCN(C(=O)c2csc(-c3ccc4c(c3)CCO4)n2)CC1,-1.1,-4.5,6.1,i,-0.5,/,3.7,5.3
CC(C)(C)Cc1nnc(NC(=O)Cc2ccc([N+](=O)[O-])cc2)s1,2.0,7.5,3.5,i,34.5,/,-2.1,-1.4
CCN(CC)c1ccc(NC(=O)Nc2ccc(C(C)=O)cc2)cc1,-3.9,/,-3.4,i,-58.8,-3.7,2.8,0.2
CC(C)CC1C(=O)N(Cc2cn(Cc3ccco3)nn2)CCS(=O)(=O)N1Cc1ccc(-c2cccc(N(C)C)c2)cc1 (stereo not drawn),/,/,/,/,-9.9,-6.9,-1.5,-7.5
O=C(CN1C2=NCCN2c2ccccc21)c1ccco1,-1.2,0.9,7.5,/,-48.5,-2.3,-4.5,1.2
Cc1ccn(CCC(=O)O)n1,-0.5,-5.7,3.2,i,12.0,/,-2.9,1.4
CCNC(=O)CSc1nnc(CN2CCCCCC2=O)n1-c1ccccn1,-3.9,/,12.6,i,4.2,/,3.6,6.6
CCOC(=O)c1sc(NS(=O)(=O)c2ccccc2Cl)nc1C,-3.0,-11.1,5.6,i,26.3,-3.9,1.5,-1.1
COCC(=O)Nc1nnc(COc2ccccc2)s1,0.2,10.1,6.3,i,5.3,-9.6,-5.9,0.3
Cc1cc(C)n(CCCNC(=O)COc2ccc([N+](=O)[O-])cc2)n1,/,-12.0,/,/,1.0,-7.6,0.9,0.2
CCOC(=O)c1ccc(CNC(=O)c2cc(C(C)(C)C)oc2C)o1,-0.7,11.6,-1.2,i,-5.8,-12.8,-0.6,0.9
O=c1nc(SCc2c(F)cccc2Cl)nc(-c2ccccc2)[nH]1,-1.4,25.0,1.9,i,-26.9,/,/,/
O=C(CSc1nnc(-c2ccncc2)s1)Nc1ccc(Cl)c(C(=O)O)c1,6.4,-4.5,16.5,/,9.0,-10.7,3.3,5.5
CC(C)(CNC(=O)c1ccc(S(=O)(=O)N2CCCC2)cc1)N1CCOCC1,7.9,-5.8,12.9,i,4.3,-15.1,-3.6,0.8
COc1ccc(C2C3=C(Nc4ncnn42)c2ccccc2CCC3)cc1 (stereo not drawn),4.4,8.6,11.1,i,0.2,-15.6,-5.4,-7.0
C=CCOC(=O)C(C#N)c1nc2ccccc2nc1N1CCN(c2ccccc2OCC)CC1 (stereo not drawn),14.6,8.1,-5.7,i,-17.3,/,-3.8,0.5
Cc1cc(NCc2ccccn2)nc2ccccc12,-1.5,-21.3,-15.0,i,/,-11.1,0.4,4.0
O=C(Nc1ccccn1)c1ccc2c(c1)OCO2,-2.5,/,5.8,i,-14.6,-18.0,-6.2,0.0
CCN(C(=O)COC(=O)c1cc([N+](=O)[O-])ccc1N1CCOCC1)C1CCS(=O)(=O)C1 (stereo not drawn),/,-6.1,/,i,-34.4,-22.1,8.8,3.5
CN1C(N)=NC(=O)/C1=C/c1ccc(F)cc1,9.5,-6.2,7.3,i,11.5,-18.5,0.0,2.1
COC(=O)c1oc2c(c1C)C(=O)CCC2,0.2,-10.3,-6.3,i,15.9,-4.9,-0.9,0.2
CC1CCCN(C(=S)NCCc2ccccc2)C1 (stereo not drawn),2.1,-8.4,-4.6,i,-46.5,1.8,3.3,6.2
Cc1ccc(-n2ncc3c(NNC(=O)c4cccs4)ncnc32)cc1,9.4,/,0.4,i,0.8,/,5.8,0.0
C1CCC(NC2=NCCC2)CC1,-2.7,1.7,-0.1,i,-53.7,-19.6,-2.4,5.1
Cc1ccccc1-n1c(=O)c2c(n3cnnc13)-c1ccccc1CC21CCCCC1,-1.6,-6.4,1.1,i,/,2.6,1.9,0.0
O=C(c1cccc(F)c1)N1CCCC(C(=O)N2CCCCC2)C1 (stereo not drawn),0.9,15.6,6.1,i,6.0,-15.4,1.2,3.9
CC(C)NC(=O)N(Cc1ccccc1)Cc1cccs1,-10.1,-4.8,-3.1,i,14.6,-1.6,1.6,1.8
CCCCCn1c(=O)[nH]c2cc(C(=O)NCCN3C(C)CCCC3C)ccc2c1=O (stereo not drawn),-12.7,15.7,-20.5,/,1.4,-6.8,/,/
O=C(NCCc1ccccc1)c1cccc(Br)c1,3.6,18.5,6.8,i,-39.5,-22.0,0.8,-4.4
CCN1CCCC1CN(Cc1cc2cc(OC)ccc2[nH]c1=O)C(=O)NCc1ccccc1 (stereo not drawn),-6.9,-5.1,5.7,i,/,8.9,-2.9,0.5
O=C(Nc1cccc(Cl)c1)Nc1csc([N+](=O)[O-])c1,-5.8,?,9.6,i,?,-3.4,-11.5,-35.2
Cc1ccc(S(=O)(=O)Nc2ccc3c(c2)nc(C)n3C)cc1,-8.6,-7.1,-0.9,i,-3.3,/,1.9,-2.8
O=C(/C=C/c1cccc(O)c1)c1cccnc1,5.4,/,-19.6,i,14.7,/,1.7,2.9
CCCCn1c(N)c(N(CCOC)C(=O)C2CC(=O)N(c3ccc(CC)cc3)C2)c(=O)[nH]c1=O (stereo not drawn),/,-11.1,/,/,32.1,129.0*,-1.2,-2.3
COCC(=O)NCCSc1c(C)[nH]c2ccccc12,-6.8,-12.7,-3.4,i,-12.9,-7.0,1.1,0.9
Cc1cc([N+](=O)[O-])nn1CC(=O)NCCCN1CCOCC1,-10.2,8.1,2.8,i,-22.5,-20.3,1.6,-0.2
CCC(=O)Nc1cc(-c2nn(C)c(=O)c3ccccc23)ccc1N1CCCCC1,2.4,3.4,6.5,i,-34.2,-1.4,6.1,0.7
CC(=O)Nc1ccc(S(=O)(=O)NCC(=O)OCC(=O)c2cc(C)n(-c3ccc4c(c3)OCO4)c2C)cc1,40.6,0.0,7.0,i,/,/,1.8,1.8
Cc1cc(C)c(C(O)c2ncc(-c3cccc(F)c3)[nH]2)c(C)c1 (stereo not drawn),/,/,/,/,-19.8,-12.5,2.1,1.3
Cn1c(N)c(C(=O)c2ccc(C#N)cc2)c(=O)n(C)c1=O,-5.2,19.1,-0.5,i,12.8,-11.7,5.3,7.9
Cc1cccc(/C=C2\Oc3cc(OS(C)(=O)=O)ccc3C2=O)c1,6.1,9.7,1.4,i,-27.4,-4.4,-3.3,-7.9
Cc1c(NC(=O)CSc2ccccc2C(=O)Nc2cccnc2)c(=O)n(-c2ccccc2)n1C,-4.1,1.8,-2.6,i,/,-5.5,5.8,5.4
COC(=O)C1=C(C)N(C)C(=S)NC1c1ccc(OC)cc1OC (stereo not drawn),-2.5,-19.6,-16.4,i,-7.1,/,-4.0,4.3
O=C(NCC(c1ccco1)N1CCc2ccccc21)C(=O)Nc1ccc(F)cc1F (stereo not drawn),/,59.9,/,i,52.1,-4.4,1.9,-10.7
O=C(NCCc1cn2ccccc2n1)c1cc(COc2c(F)cccc2F)on1,-8.6,-8.0,2.8,i,19.2,-8.8,4.4,0.3
COc1ccccc1CNC(=O)c1[nH]c(C)c(C(C)=O)c1C,0.1,-5.6,0.8,i,-11.5,-5.2,3.7,-3.7
COc1ccc(CCN2CC(C(=O)NCCc3ccc(F)cc3)CCC2=O)cc1 (stereo not drawn),5.0,-7.3,0.8,i,-5.0,-12.6,-0.4,-2.6
COc1cccc(NC(=O)CN(C)C(C)C(=O)Nc2ccc(C(C)=O)cc2)c1 (stereo not drawn),-4.2,-7.5,-11.5,i,-2.0,/,-2.5,-0.6
Cc1cccc(NC(=O)C(NS(=O)(=O)c2ccc3c(c2)CCC(=O)N3)c2ccccc2)n1 (stereo not drawn),-2.0,-2.8,-5.2,i,17.3,-5.5,4.5,-1.1
COc1cc(-c2nc(-c3ccccc3)c(-c3cccs3)[nH]2)cc(OC)c1O,-15.5,-1.9,2.1,i,-241.1,-12.9,12.1,1.4
CCc1ccc(/C=C/C(=O)c2ccc(N3CCOCC3)cc2)cc1,-16.4,/,-20.4,i,25.0,/,0.8,-5.9
COc1ccccc1OCC(O)CN1CCOCC1 (stereo not drawn),-1.5,-9.8,-8.4,i,8.0,-12.4,1.7,6.6

Further compounds follow.
Structure,eIF4H inh,CSC inhib,PABP FP inh,Rce1 inh,Env fusion inh,UUG fidelity,MT1-MMP act inh,MT1-MMP act inh RFP
CCOC(=O)C1=C(C)NC(C)=C(C(=O)OCC)C1c1cc2ccc(C)cc2[nH]c1=O,4.1,37.4,-8.4,i,-227.4,2.1,0.5,-8.1
Fc1ccc2cc(-c3ccccc3)ncc2c1,/,-16.9,/,/,-131.1,-14.0,-0.3,3.4
CC1CCC2(CC1)NC(=O)N(CC(=O)NCc1cccs1)C2=O (stereo not drawn),-2.6,-23.7,1.8,i,10.5,/,-5.9,-1.7
COc1ccc(NC(=O)Cn2nnc(C(=O)NCCc3ccccc3)c2N)cc1,-25.0,/,-5.0,i,15.5,/,-0.5,4.5

Source: PubChem
